# Compound activity (PubChem)
# Beta2AR agonist = human beta-2 adrenergic receptor agonism by FAP; response, % (concentration not given with the values); Am2.2-beta2AR cells, FAP receptor internalization, flow cytometry; reference of the scale not given here; P07550; actives 0.43% (n = 340,000); AID 504454;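 active = response above a set limit, near 3 SD of response in nonfluorescent compounds, cut at about 42% in these data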;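 note: stock transfer was 100 nL into about 11 µL; a reference agonist was the positive control; negative values mostly stem from fluorescent compounds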
# HNF4A DNA FP = change in binding of human HNF4 alpha to DNA | HNF4a-FITC DNA binding, fluorescence polarization, 1 h | P41235 | actives 0.3% (n = 360,000) | activity change, % at 10 µM; in the data active = activity change above about 30%, passing the limit was not always enough;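 note: controls were the assay level and a saturating level of protein; the project sought stronger binding though the title names inhibitors; some compounds called inactive have numbers as strong as hits; positive values seem to mean higher polarization but the record does not say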
# ALR H2O2 inh = human ALR oxidase inhibition via reduced H2O2 | P55789 | purified ALR, DTT oxidation, H2O2 HRP-luminol luminescence | inhibition, % (test concentration not listed) | actives 3.8% (n = 290,000) | AID 485317;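 active = mean and each replicate at 75% or more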;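 note: stock transfer was 7.5 nL into about 7.5 µL; 0% = neutral wells and 100% = wells with inactivated enzyme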
# FGF22 binding = binders of recombinant human FGF22 by thermal shift; calls only at 9.99 µM; SYPRO orange fluorescence; percent of sucrose octasulfate shift, DMSO zero; actives 1.5% (n = 340,000);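 active = melting point raised past a set limit in the mean and every replicate; three in four hits are not shown here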
# LANA-H2A inh = blocks KSHV LANA binding to histone H2A/H2B | AID 2629 | inhibition, % (no concentration beside the values) | cell-free LANA-H2A/H2B peptide, fluorescence polarization | actives 0.6% (n = 320,000) | Q9QR71; in the data active = inhibition mostly above about 10%, no sharp cut-off; inactive = mostly below about 6.7%;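 note: stock transfer was 7.5 nL into about 10 µL; 0% = median of vehicle wells and 100% = median of positive control wells; one replicate is shown; the record names a cut of 25% in any replicate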
# Target sequence (Q9QR71 whole entry, looked up): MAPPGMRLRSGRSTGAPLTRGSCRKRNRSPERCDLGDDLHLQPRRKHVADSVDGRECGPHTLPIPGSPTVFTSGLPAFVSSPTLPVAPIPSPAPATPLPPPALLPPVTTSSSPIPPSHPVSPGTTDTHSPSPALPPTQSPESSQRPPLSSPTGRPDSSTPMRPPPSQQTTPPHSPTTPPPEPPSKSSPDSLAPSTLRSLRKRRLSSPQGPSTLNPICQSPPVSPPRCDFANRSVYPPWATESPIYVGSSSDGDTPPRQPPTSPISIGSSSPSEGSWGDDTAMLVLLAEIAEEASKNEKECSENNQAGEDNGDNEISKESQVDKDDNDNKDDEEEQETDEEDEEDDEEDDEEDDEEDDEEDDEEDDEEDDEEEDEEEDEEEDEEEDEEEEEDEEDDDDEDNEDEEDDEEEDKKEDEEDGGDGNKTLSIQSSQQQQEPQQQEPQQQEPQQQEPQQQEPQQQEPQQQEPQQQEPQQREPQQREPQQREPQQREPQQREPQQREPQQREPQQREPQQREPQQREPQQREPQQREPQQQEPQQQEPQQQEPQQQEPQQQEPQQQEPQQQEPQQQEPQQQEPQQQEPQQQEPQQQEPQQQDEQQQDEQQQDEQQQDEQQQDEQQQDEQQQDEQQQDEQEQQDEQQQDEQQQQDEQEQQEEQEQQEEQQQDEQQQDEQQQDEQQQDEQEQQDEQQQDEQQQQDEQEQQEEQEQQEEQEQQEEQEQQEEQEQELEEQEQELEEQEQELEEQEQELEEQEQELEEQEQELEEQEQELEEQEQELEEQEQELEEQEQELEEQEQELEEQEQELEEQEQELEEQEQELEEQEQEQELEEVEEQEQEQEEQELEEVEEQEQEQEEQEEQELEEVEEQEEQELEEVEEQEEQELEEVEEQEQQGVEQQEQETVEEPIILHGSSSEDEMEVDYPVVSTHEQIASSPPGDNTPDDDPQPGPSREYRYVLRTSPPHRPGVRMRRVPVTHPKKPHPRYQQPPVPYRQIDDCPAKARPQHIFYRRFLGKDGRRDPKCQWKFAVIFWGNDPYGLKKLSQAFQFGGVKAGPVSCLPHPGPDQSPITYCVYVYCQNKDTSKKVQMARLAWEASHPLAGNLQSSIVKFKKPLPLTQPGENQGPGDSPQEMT
# E coli growth = blocks Escherichia coli growth; AID 1053175; OD600, 23 h; hits give low values; actives 0.21% (n = 330,000); OD600 absorbance (concentration not given with the values);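 active = OD600 absorbance below the run mean of sample wells minus 3.6 SD, in any replicate, cut at about 0.56 in these data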;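 note: stock transfer was 300 nL into about 60 µL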
# UCH37 inh = blocks the human deubiquitinase UCH37; purified proteasome/UCH37, Ub-AMC cleavage fluorescence; inhibition, % (no concentration beside the values); actives 0.33% (n = 330,000); AID 588478;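 active = mean of two replicates above 20%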;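 note: 0% = compound-free wells with enzyme and 100% = wells lacking proteasome; stock transfer was 100 nL into about 20 µL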
#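 Schedule: 30 min plus 25 min, room temperature / Material: human UCH37 within purified proteasomes / Technique: AMC fluorescence intensity at 355/460 nm / Buffer or medium: pH 7.4 Tris-HCl (50 mM) with ovalbumin, ATP-MgCl2, DTT / Controls: wells without proteasome as full block, compound-free enzyme plus substrate as uninhibited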
# * = called active by the depositor; i = inactive; · = not tested or not shown. An excerpt; the hit share may differ from the screen's.
# The first 4 entries as a preview:
SMILES,Beta2AR agonist,HNF4A DNA FP,ALR H2O2 inh,FGF22 binding,LANA-H2A inh,E coli growth,UCH37 inh
N#CC(C(=O)Nc1ccc(Cl)c(Cl)c1)=C1Nc2ccccc2N1,-11,-0.3,2,·,8.4,0.73,1.1
Clc1ccc(CN2CCN(c3ncccn3)CC2)c(Cl)c1,0,-2.5,6,i,-4.4,0.67,2.1
O=C(O)c1cc2c([nH]c1=O)CCCC2,9,-1.0,3,·,2.0,0.71,-12
CCOC(=O)c1[nH]c(C)c(C(=O)NC2CCCCC2)c1C,-4,0.9,·,i,-2.5,0.75,3.7

# The whole of this part, repeating the preview:
SMILES,Beta2AR agonist,HNF4A DNA FP,ALR H2O2 inh,FGF22 binding,LANA-H2A inh,E coli growth,UCH37 inh
N#CC(C(=O)Nc1ccc(Cl)c(Cl)c1)=C1Nc2ccccc2N1,-11,-0.3,2,·,8.4,0.73,1.1
Clc1ccc(CN2CCN(c3ncccn3)CC2)c(Cl)c1,0,-2.5,6,i,-4.4,0.67,2.1
O=C(O)c1cc2c([nH]c1=O)CCCC2,9,-1.0,3,·,2.0,0.71,-12
CCOC(=O)c1[nH]c(C)c(C(=O)NC2CCCCC2)c1C,-4,0.9,·,i,-2.5,0.75,3.7
CCN1CCN(C(=O)C2COc3ccccc3O2)CC1 (centres undefined),9,-0.3,-2,i,5.3,0.67,-0.1
O=C(/C=C/c1ccc2c(c1)OCO2)N1CCOCC1,4,0.2,-4,·,4.7,0.71,-14
CC(C)(C)NC(=O)CN(C(=O)CS(=O)CC(=O)Nc1ccc(F)cc1)c1ccc(Cl)cc1 (centres undefined),-4,-2.9,16,·,1.0,0.74,4.9
CCC(CC)NC(=O)COc1ccc(OC)cc1C=O,-2,-0.7,-7,i,-1.8,0.65,-29
CCOC(=O)N1CCC(NC(=O)C2CCCN(S(=O)(=O)c3cccnc3)C2)CC1 (centres undefined),0,4.1,-6,i,0.7,0.82,2.0
CCOC(=O)c1cnc2ccc(C)cc2c1NCCO,3,0.9,-6,·,1.9,0.67,2.2
COc1ccc(Br)cc1CNc1ccc2[nH]c(=O)[nH]c2c1,-9,3.9,99*,i,-1.0,0.74,-1.0
O=C(O)CSCC(=O)N1CCCN(c2ccc(C(F)(F)F)cn2)CC1,-5,-0.5,-4,i,2.9,0.68,-3.8
CCN(c1ccccc1)S(=O)(=O)c1nnc(NC(=O)c2ccccc2OC)s1,1,2.6,·,i,1.8,0.78,1.9
CCOc1ccc(N2CC(NS(=O)(=O)c3cccnc3)CC2=O)cc1 (centres undefined),1,2.2,1,i,1.6,0.68,0.7
O=C(Cn1c(=O)oc2cc(S(=O)(=O)NCc3ccccc3)ccc21)N1CCCC1,-10,4.3,-4,i,-1.7,0.69,2.8
C/C(=N\NC(=O)CCC(=O)NCc1ccccc1)c1ccc([N+](=O)[O-])cc1,-2,0.5,·,i,·,·,·
COc1cccc(-c2ncc3ccccc3c2COC(=O)c2ccccc2C(=O)O)c1,-6,-0.2,4,i,-0.2,0.65,-2.9
COc1cc(C(=O)NCc2nnc(SCC(=O)Nc3cccc(C(F)(F)F)c3)o2)cc(OC)c1OC,-7,-2.2,-58,i,1.1,0.65,2.5
CC1(OC(=O)C2CCCC2)C(=O)C=C2C=C(c3ccsc3)OC=C2C1=O (centres undefined),12,8.8,-5,i,0.1,·,·
CC(C)NS(=O)(=O)c1ccc2c3c(cccc13)CC2,-5,-1.7,-16,i,4.3,0.7,-18
CCc1ccc(NC2=NC(C(=O)c3ccccc3)CC(=O)N2)cc1 (centres undefined),-4,-1.8,3,·,3.5,0.76,2.1
NCc1ccccc1,-7,-2.5,-12,i,1.2,0.67,3.4
N#C/C(=C\c1cn[nH]c1-c1ccccc1)C(=O)NC1CCCCCC1,-6,1.8,48,·,-0.9,0.67,1.8
Nc1nc(C(=O)N2CCOCC2)nn1C(=O)c1ccc(Cl)cc1,6,0.1,86*,i,-2.6,0.75,1.0
O=C(CCc1ccccc1)NC(NC(=S)Nc1ccc(Br)cc1)C(Cl)(Cl)Cl (centres undefined),6,2.0,-5,i,-0.1,0.66,2.1

# More compounds.
SMILES,Beta2AR agonist,HNF4A DNA FP,ALR H2O2 inh,FGF22 binding,LANA-H2A inh,E coli growth,UCH37 inh
CN(CC(=O)Nc1ccc(F)cc1)C(=O)c1cc(-c2cccs2)nn1-c1ccccc1,15,4.7,·,i,·,0.7,4.5
CCOc1ccc(N2C(=O)CC(NC3CCCCNC3=O)C2=O)cc1 (centres undefined),-5,-1.6,3,·,11,0.82,1.0
CCc1ccc(C(C)NC(=O)C2CCCC2)cc1 (centres undefined),-2,-1.9,-6,i,5.2,0.69,1.3
O=C(CN1C(=O)CSc2ncccc21)NCCN1CCOCC1,7,3.9,-56,i,0.4,0.73,7.5
COc1cc(N=c2ssnc2Cl)cc(OC)c1OC,-2,0.8,·,·,6.1,0.69,5.3
COc1cc(NC(=S)Nc2ccc(OC(F)F)cc2)cc(OC)c1,-4,5.6,12,i,1.0,0.69,3.4
CC(Oc1ccccc1F)c1nnc(SCC(=O)c2c(N)n(C3CC3)c(=O)[nH]c2=O)o1 (centres undefined),-8,4.8,2,i,2.6,0.68,2.9
O=C(NC(=S)NCc1ccco1)c1cccc(Cl)c1,-6,0.0,15,i,-0.8,·,·
COc1ccc(CNC(C)C2COc3ccccc3O2)c(OC)c1 (centres undefined),9,2.1,-16,·,2.0,0.77,6.5
Oc1ccc(Br)cc1CNc1cccc2cccnc12,19,0.3,·,i,-1.6,·,·
CN(C)S(=O)(=O)c1ccc(C(=O)NCc2nnc(SCC(=O)N3CCCC3)o2)cc1,8,1.4,-16,i,-1.2,0.67,-1.3
CCOC(=O)CCNC(=O)N1CCCC(N(C)CCc2ccccc2)C1 (centres undefined),-3,-0.4,-2,i,-0.5,0.68,1.5
Cc1c(C(=O)Nc2c(F)cccc2F)sc2ncn(CC(=O)N3CCCCC3)c(=O)c12,-5,-0.1,0,i,5.1,0.61,2.1
O=C(O)CCCNS(=O)(=O)c1cccc2nsnc12,3,2.4,-19,·,2.6,0.71,3.1
C=CCNC(=O)c1c(CSc2ccc(F)cc2)noc1C(=O)NCCC,-4,-2.7,2,i,-2.0,·,-2.8
COc1ccccc1Nc1nc(N(C)c2ccccc2)nc(N)c1[N+](=O)[O-],5,2.8,17,·,1.6,0.7,3.6
Cc1cccn2c(=O)c3cc(C(=O)NCCc4ccccc4)c(=N)n(CC4CCCO4)c3nc12 (centres undefined),-12,0.8,-9,i,-2.0,0.69,i
O=C(COC(=O)Cn1[nH]c(=O)c2ccccc2c1=O)NNC(=O)c1ccc(Br)cc1,5,4.3,·,i,·,0.69,5.4
COc1ccc(CCNC(=O)CCc2nc3sc4c(c3c(=O)[nH]2)CCCC4)cc1,-9,3.4,·,i,-0.1,0.69,0.1
CCn1cc(S(=O)(=O)Nc2ccc(Cl)cc2F)cn1,3,5.2,-1,i,3.1,0.69,1.6
COC(=O)C1CN(C(=O)COc2ccc(Cl)cc2C)c2ccccc2O1 (centres undefined),8,-1.0,-8,i,4.8,0.67,0.5
COc1ccc(OC)c(NC(=O)c2cccc(N3C(=O)C4C5C=CC(C6CC56)C4C3=O)c2)c1 (centres undefined),21,0.9,·,i,5.1,0.71,-13
COc1cc(CNCc2ccncc2)cc(OC)c1OC,-3,-2.4,·,i,2.1,0.68,1.9
CCCn1c(Nc2cccc(OC)c2)nc2ccccc21,-3,-2.4,0,i,4.9,0.68,5.2
Cc1ccc(NC(=O)N2CCSc3ccccc32)cc1,-2,-0.1,-5,i,0.0,0.75,4.0

# Fetched by compound from above (three):
SMILES,Beta2AR agonist,HNF4A DNA FP,ALR H2O2 inh,FGF22 binding,LANA-H2A inh,E coli growth,UCH37 inh
COc1cc(CNCc2ccncc2)cc(OC)c1OC,-3,-2.4,·,i,2.1,0.68,1.9
COc1ccc(OC)c(NC(=O)c2cccc(N3C(=O)C4C5C=CC(C6CC56)C4C3=O)c2)c1 (centres undefined),21,0.9,·,i,5.1,0.71,-13
COc1ccc(CCNC(=O)CCc2nc3sc4c(c3c(=O)[nH]2)CCCC4)cc1,-9,3.4,·,i,-0.1,0.69,0.1

# The list goes on:
SMILES,Beta2AR agonist,HNF4A DNA FP,ALR H2O2 inh,FGF22 binding,LANA-H2A inh,E coli growth,UCH37 inh
Cn1cc(CNCC2CCCO2)c(-c2ccc(Oc3ccccc3)cc2)n1 (centres undefined),4,2.4,0,i,-3.5,0.68,2.2
Cc1ccc(C)c2[nH]c(=O)c(CCNC(=O)c3cccs3)cc12,-28,-0.5,-8,i,-0.4,0.71,-5.0
CC(C)(C)c1cc(-c2ccco2)c(C#N)c(SCC#N)n1,5,1.7,-2,·,-0.1,0.77,0.9
CCC(Cc1ccccc1)NC(=O)CN(C)S(=O)(=O)c1ccc2c(c1)c(=O)n(C)c(=O)n2C (centres undefined),-10,-1.4,·,i,4.1,0.72,6.4
COC(=O)c1cc(C#N)c(Oc2cccc(C)c2C)nc1C,2,-0.8,-2,·,0.5,0.74,3.1
O=C(COC(=O)c1ccc(S(=O)(=O)NCc2ccco2)cc1)NCc1ccccc1,3,-1.0,-1,i,2.1,0.75,2.8
COC(=O)CN1C(C)=Nc2ccc(Br)cc2C1c1ccccc1 (centres undefined),-4,2.0,-9,·,5.2,0.66,4.1
CCc1cc2c(=O)c(-c3nc4ccccc4n3C)c(C)oc2c(CN(CC)CC)c1O,5,0.0,-12,·,2.3,0.68,-30
COc1ccc(OC)c(S(=O)(=O)N2CCN(C34CC5CC(CC(C5)C3)C4)CC2)c1,-3,-2.5,-9,·,1.1,0.68,-2.2
COc1ccc(-c2ccc3c(c2)C2CC3CCN2S(=O)(=O)c2ccccc2C)cc1 (centres undefined),-4,3.8,·,i,·,·,·
CCOC(=O)c1ccc(NC(=O)CSc2nnc(CC)o2)cc1,-1,-0.9,-5,i,2.9,0.69,6.6
CCOC(=O)c1cn(Cc2ccccc2)nn1,8,-2.1,-4,i,-4.5,0.64,1.8
CC(C)Oc1ccc(CSC(=N)N)cc1,-2,-3.6,98*,·,-3.5,0.69,4.1
CC(C)c1ccccc1OCC(=O)N(C)CC(=O)Nc1ccc(F)cc1,0,1.5,1,i,-1.7,0.69,-0.4
COc1cccc(C(=O)NC(=O)Nc2cc(C)on2)c1,-3,0.4,-5,i,1.6,0.7,0.2
Cc1cccc(C(=O)Nc2ccc(N3CCN(c4ccc(C(F)(F)F)cn4)CC3)nc2)c1,-4,22,-5,i,2.4,0.71,-3.2
CC(=O)NC1=NN(C(C)=O)C(C)(c2ccco2)S1 (centres undefined),4,-5.5,-2,i,-2.8,0.74,0.5
CC1=CC2=NC(=O)/C(=C\c3cc(C)n(-c4ccc(F)cc4)c3C)C(=N)N2O1,-10,-1.9,-19,i,2.5,0.73,-13
COc1ccc(-c2nc(SC)n(C)c(=O)c2C#N)cc1OC,-3,0.7,-15,·,-4.2,0.75,-1.1
O=C(COC(=O)Cn1cnc2ccccc2c1=O)Nc1cc(Cl)ccc1[N+](=O)[O-],0,-0.9,·,i,-0.2,0.67,6.0
COc1ccc(N2CCN(c3ccc(S(=O)(=O)N(C(C)C)C(C)C)cn3)CC2)cc1,5,-7.5,-2,i,-1.7,0.72,-9.7
O=C([C@@H]1CCCN1C(=O)c1cccs1)N1CCN(S(=O)(=O)c2ccccc2F)CC1,-11,-2.4,0,i,3.4,0.68,4.6
COC(=O)c1ccccc1S(=O)(=O)N1CCC(C(=O)OC(C)C(=O)N(C)Cc2ccccc2)CC1 (centres undefined),-2,0.7,·,i,·,0.68,0.4
CCCC(=O)Nc1cccc(-c2nc3cc(C)c(C)cc3o2)c1,2,1.5,1,·,0.5,0.73,-21
Cc1ccc(C(=O)CCC(=O)OCC(=O)Nc2c(C)nn(-c3ccccc3)c2C)cc1,-4,1.4,·,i,-2.6,0.7,0.2
CC(=O)Nc1cccc(-c2nn[nH]n2)c1,-4,-1.4,·,i,2.7,0.67,2.5
CCc1nc2ccccc2c2nc3ccccc3n12,-6,1.8,-3,·,1.3,0.7,-29
CCC(C(=O)NCCCc1ccccc1)c1ccccc1 (centres undefined),-7,0.6,0,·,1.8,0.68,5.7
O=C(Nc1ccc(F)cc1F)NC1CCCc2ccccc21 (centres undefined),-2,-0.4,-4,i,7.4,0.75,0.0
